TRPV1 potentiator: human TRPV1 potentiation | Q8NER1 | TRPV1-expressing cells, Fluo-8 calcium influx, capsaicin EC20 potentiation; host cell line not named in the record; control for the full effect not named in the record | potentiation, % at 8.33 µM | hit rate 0.02% among 320,000 | AID 540277; active means potentiation above 80%; inconclusive means 30% to 80%; inactive means below 30%; also: 0% is about no effect
Target sequence (Q8NER1 whole entry, looked up): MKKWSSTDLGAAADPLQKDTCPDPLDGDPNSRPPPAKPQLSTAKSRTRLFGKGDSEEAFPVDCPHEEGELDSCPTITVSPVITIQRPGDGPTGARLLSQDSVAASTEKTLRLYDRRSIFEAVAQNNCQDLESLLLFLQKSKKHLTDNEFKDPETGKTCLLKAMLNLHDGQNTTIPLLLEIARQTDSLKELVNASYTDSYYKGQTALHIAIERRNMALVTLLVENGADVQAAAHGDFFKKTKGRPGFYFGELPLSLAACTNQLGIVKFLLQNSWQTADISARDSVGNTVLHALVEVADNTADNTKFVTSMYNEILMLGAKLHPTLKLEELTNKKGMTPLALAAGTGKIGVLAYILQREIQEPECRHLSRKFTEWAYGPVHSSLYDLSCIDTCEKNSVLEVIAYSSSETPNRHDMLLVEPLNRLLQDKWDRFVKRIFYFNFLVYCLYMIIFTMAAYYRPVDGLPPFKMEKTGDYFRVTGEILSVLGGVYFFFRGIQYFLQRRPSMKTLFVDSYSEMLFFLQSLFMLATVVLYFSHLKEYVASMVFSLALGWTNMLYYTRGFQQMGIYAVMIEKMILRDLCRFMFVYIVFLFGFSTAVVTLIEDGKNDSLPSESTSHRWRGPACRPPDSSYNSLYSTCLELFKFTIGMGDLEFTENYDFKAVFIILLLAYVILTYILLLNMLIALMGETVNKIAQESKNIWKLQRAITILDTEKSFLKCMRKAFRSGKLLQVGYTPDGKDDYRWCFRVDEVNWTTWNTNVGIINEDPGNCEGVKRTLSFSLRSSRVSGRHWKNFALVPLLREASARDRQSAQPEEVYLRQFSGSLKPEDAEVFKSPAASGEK
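TRPV1-expressing cells were cultured overnight at 35.5C and loaded with Fluo-8 calcium dye for 40 to 90 min at room temperature. After a 10 s baseline, compound was added and calcium influx was read kinetically for 3 min (ex 480/em 520 nm).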
gsp ag: activates gsp, the McCune-Albright syndrome mutation; gsp mutant cells, cAMP HTRF, 30 min; control for the full effect not named in the record; Potency, µM (highest dose often 76.9 µM), inactives show at the top dose activation (cAMP increase), hits mostly activators; hit rate 0.13% among 340,000; AID 624287; active = well fitted activation curve with a large enough effect; inconclusive = small, poorly fitted or top-dose-only effect, or another doubt; inactive = no such curve, though single readings can be large or run the other way; cell line not stated here;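 also: phosphodiesterase inhibitor Ro 20-1724 added with compounds to block cAMP breakdown; potency is read from the fitted curve at half-maximal effect; nearly all actives have a fitted effect of over 60% in size; about a fifth of the inactives were tested at one dose only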
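Cells stably selected in G418 were plated at 2000/well, grown 16-24 hr, then given compounds in DMSO with the PDE inhibitor […] (300 uM solution added) for 30 min at 37C; cAMP was read by HTRF.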
gsp antagonist: antagonists of gsp mutant (McCune-Albright syndrome); hit rate 0.4% among 340,000; gsp-mutant cells, cAMP HTRF, 30 min; control for the full effect not named in the record; Potency, µM (doses to about 76.9 µM), without a hit: at the highest dose activity change, negative = inhibition, actives largely listed as inhibitors; active = falling curve of any shape with a large fitted effect; inconclusive = falling curve, mostly with a smaller effect; inactive = flat or rising curve; cell line not stated here;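 also: intracellular cAMP measured with PDE inhibitor Ro 20-1724 present during compound exposure; potency is read from the fitted curve at half-maximal effect; % is scaled to controls: 0 for no effect and ±100 for the full control effect; nearly all actives have a fitted effect of over 65% in size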
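G418-selected cells were plated in DMEM/10% FBS for 16-24 h at 37C, then treated with compounds plus the PDE inhibitor […] (300 uM solution added) for 30 min at 37C. Intracellular cAMP was measured by HTRF after 30 min lysis at room temperature.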
Sfp inh: inhibitors of Bacillus subtilis Sfp phosphopantetheinyl transferase; Q9F4F7; Biochemical Sfp PPTase activity, qHTS; hit rate 3.5% among 310,000; Potency, µM, for the others: max response, negative = inhibition, hits mostly inhibitors; active = well fitted inhibition curve with a large enough effect; inconclusive = small, poorly fitted or top-dose-only effect, or another doubt; inactive = no such curve, though single readings can be large or run the other way;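 also: the enzyme is Sfp with the accession as filed and its product quenches rhodamine fluorescence; potency is read from the fitted curve at half-maximal effect; 0% = enzyme reaction without inhibitor and -100% = no enzyme wells; top concentration of the series not given in the record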
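After 15 min at room temperature with compound, 15 nM Sfp received 5 uM rhodamine-CoA plus 12.5 uM BHQ-2-ybbR (50 mM Hepes pH 7.6, 10 mM MgCl2). Rate came from the fluorescence difference over 30 min, ex 525/em 598 nm.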
ClpP mod: qHTS Assay for Activators of ClpP. ATP-dependent Clp protease proteolytic subunit (Bacillus subtilis (strain 168)), P80244. purified B. subtilis ClpP, FRET peptide cleavage, 20 min. Potency, µM (top dose mostly 57.5 µM), without a hit: at the top dose activity change, negative = active. hit rate 1.9% among 340,000; active = well fitted falling curve with a large enough effect; inconclusive = small, poorly fitted or top-dose-only effect; inactive = no such curve, though single readings can be large or run the other way; also: potency is read from the fitted curve at half-maximal effect; the source files actives as falling curves though it sought activators and does not explain the sign; nearly all actives have a fitted effect of over 65% in size; many hits overshoot -100%
Target sequence (P80244 whole entry, looked up): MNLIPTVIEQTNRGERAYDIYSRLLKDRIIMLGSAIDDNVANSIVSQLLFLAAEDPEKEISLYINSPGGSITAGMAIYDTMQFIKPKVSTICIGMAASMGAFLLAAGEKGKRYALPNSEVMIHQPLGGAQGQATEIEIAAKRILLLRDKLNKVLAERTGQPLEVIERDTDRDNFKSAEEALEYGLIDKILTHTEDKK
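Purified B. subtilis ClpP, 10 microg/mL final in Tris/HCl pH8 with KCl, BSA, glycerol and Tween-20, cleaved an Abz/nitrotyrosine-quenched decapeptide. Fluorescence (ex 320, em 430) was read at 0 and 20 min at room temperature. Delta was normalized to 5.8 microM ADEP and DMSO/no-enzyme controls.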
TRPML1 blocker: blocks the human TRPML1 channel | Q9GZU1 | TRPML1-inducible cells, Ca2+ dye fluorescence, FDSS; stronger effect = lower value; inhibition of EC80 agonist-evoked calcium signal | activity change, negative = inhibition, % (concentration not given with the values) | hit rate 0.02% among 390,000 | AID 624415; in the data active means activity change below about -50%; inconclusive means about -30% to -50%; inactive means above about -30%;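 also: stimulus is agonist 54-4 at its EC80 concentration; % is scaled to controls: 0 for no effect and ±100 for the full control effect; compound concentration not given in the record; the text of the record puts the active cut at -80%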
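Tet-induced TRPML1-DL cells loaded with Ca8 no-wash calcium dye were read kinetically on FDSS. Compound addition was followed by EC80 agonist 54-4 (4 uM final); inhibition was read over 110 s.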
Menin-MLL FL inh: menin-MLL binding inhibition, fluorescein peptide; 290,000 tested, under 10 active; AID 1766; FP activity change, % at 61.4 µM; Fluorescence polarization, fluorescein-MLL peptide displacement from menin; inconclusive = falling polarisation curve, or a change in total fluorescence; inactive = total fluorescence flat and polarisation flat or rising; no compound was filed as active; the % refers to the polarisation; negative = inhibition;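 also: % of control where 0% means no effect; inhibitors lower the polarisation; unlabelled MLL peptide was the positive control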
Numbers without * were called inactive; & = joins results of further samples; [ ] = remark or other dose.

How did CCc1cccc(N(C(=O)c2csnn2)C(C(=O)NC2CCCCC2)c2cccnc2)c1 (stereo not given) do in these assays?
TRPV1 potentiator: -5.7; gsp ag: 21.5%; gsp antagonist: -7.0%; Sfp inh: 8.1%; TRPML1 blocker: -6.3

Results for CC(=O)Nc1ccc(OC(=O)c2c(-c3ccccc3Cl)noc2C)cc1 ?
TRPV1 potentiator: -5.8; gsp ag: -11.8%; gsp antagonist: -3.5%; Sfp inh: 26.8%; ClpP mod: 1.2%; TRPML1 blocker: -0.9; Menin-MLL FL inh: 2.1

How did Cc1ccc(C(O)CCc2ccc(N)cc2)cc1 (stereo not given) do in these assays?
TRPV1 potentiator: inconclusive; gsp ag: -7.6%[15.4 µM]; gsp antagonist: 9.8%; Sfp inh: 7.8%; ClpP mod: -9.5%; TRPML1 blocker: 7.1; Menin-MLL FL inh: -4.1

What do the screens show for `CC1CCc2sc(NC(=O)c3ccc(N4C(=O)CCC4=O)cc3)c(C(N)=O)c2C1` (stereo not given)?
TRPV1 potentiator: -1.3; gsp ag: 22.3%; gsp antagonist: 7.7%; Sfp inh: -7.7%; ClpP mod: 1.1%; TRPML1 blocker: -10.4; Menin-MLL FL inh: 0.4

How did COc1ccc(-c2cc(C(=O)N3CCN(c4ccc(F)cc4)CC3)no2)cc1OC do in these assays?
TRPV1 potentiator: 0.1; gsp ag: -24.7%; gsp antagonist: -3.2%; Sfp inh: -27.2%; ClpP mod: -4.4%; TRPML1 blocker: 46.5&48.3; Menin-MLL FL inh: 0.8

How did COCCNc1nnc(SCC(=O)c2c[nH]c3ccccc23)s1 do in these assays?
TRPV1 potentiator: 13.8; gsp ag: -3.2%; gsp antagonist: 3.4%; Sfp inh: inconclusive; ClpP mod: -2.1%; TRPML1 blocker: -22.3; Menin-MLL FL inh: -8.3

Results for CC(=O)Nc1cccc(/C(C)=N/Nc2ccc(S(=O)(=O)Nc3ccccc3C(=O)O)cc2[N+](=O)[O-])c1 ?
gsp ag: -65.7%[inhibitor]; gsp antagonist: -13.0%; ClpP mod: 1.7%; TRPML1 blocker: 1.9

How did CC(C)(C)C1CCc2c(sc(NC(=O)c3cccs3)c2C(N)=O)C1 (stereo not given) do in these assays?
TRPV1 potentiator: inconclusive; gsp ag: -0.3%; gsp antagonist: -7.3%; Sfp inh: -16.3%; ClpP mod: 5.1%; TRPML1 blocker: 17.2; Menin-MLL FL inh: 0.6

How did O=C(NNc1cccc(Cl)c1)c1cccnc1Oc1ccccc1 do in these assays?
gsp ag: -1.7%[15.4 µM]; gsp antagonist: 2.2%; Sfp inh: -4.6%; TRPML1 blocker: -1.1; Menin-MLL FL inh: 0.9

Results for O=C(CN1CCN(S(=O)(=O)c2ccc(Cl)c(Cl)c2)CC1)N1CCCCC1 ?
TRPV1 potentiator: -16.6; gsp ag: -34.5%[inhibitor]; gsp antagonist: 2.2%; ClpP mod: -0.3%; TRPML1 blocker: -2.3

How did COc1cc(/C=C/C(=O)OCC(=O)NCCN2C(=O)CSC2=O)ccc1OCC#N do in these assays?
TRPV1 potentiator: -0.3; gsp ag: 4.1%; gsp antagonist: 1.1%; ClpP mod: 3.7%; TRPML1 blocker: -29.9

What do the screens show for `Cc1ccc(C)c(NC(=O)CN(C)C(=O)c2cc3c(s2)CCCCC3)c1`?
TRPV1 potentiator: -15.0; gsp ag: -6.5%; gsp antagonist: -21.6%; ClpP mod: 0.6%; TRPML1 blocker: 11.1

Results for CCN(CC)c1ccc(C=C2C(=O)OC(c3ccccc3)OC2=O)cc1 (stereo not given) ?
TRPV1 potentiator: 3.3; gsp ag: 19.1%; gsp antagonist: 1.6%; Sfp inh: 9.3%; TRPML1 blocker: -5.6; Menin-MLL FL inh: 9.9

How did O=C(O)C1CCCCC1C(=O)Nc1ccc(-c2ccccc2)cc1 (stereo not given) do in these assays?
TRPV1 potentiator: 1.5; gsp ag: 4.3%[15.4 µM]; gsp antagonist: 1.8%; Sfp inh: 37.5%[activator]; TRPML1 blocker: 2.9; Menin-MLL FL inh: 1.6

How did Cc1cc(C(=O)N2CCc3c([nH]c4ccccc34)C2c2cccc(Cl)c2)nn1C (stereo not given) do in these assays?
TRPV1 potentiator: -2.0; gsp ag: 1.1%; gsp antagonist: -1.2%; Sfp inh: 10.2%; ClpP mod: -9.1%; TRPML1 blocker: 13.4; Menin-MLL FL inh: 2.5

Results for Cc1cc2ncn(CCOc3ccccc3)c2cc1C ?
TRPV1 potentiator: -9.9; gsp ag: -12.1%; gsp antagonist: -12.9%; Sfp inh: 6.8%; ClpP mod: 1.0%; TRPML1 blocker: 31.6; Menin-MLL FL inh: 2.8

How did O=c1n(Cc2ccc(F)cc2)nc2n1-c1ccccc1SC2 do in these assays?
TRPV1 potentiator: -19.0; gsp ag: 8.3%; gsp antagonist: 3.5%; Sfp inh: 2.2%; ClpP mod: 0.3%; TRPML1 blocker: 40.4; Menin-MLL FL inh: -0.9

What do the screens show for `CCOC(=O)c1c(NC(=O)c2cccs2)sc(CC)c1-c1cccs1`?
TRPV1 potentiator: -4.8; gsp ag: 6.0%; gsp antagonist: -1.4%; Sfp inh: -7.6%; ClpP mod: 31.6µM*; TRPML1 blocker: -20.2; Menin-MLL FL inh: -2.1

How did O=C(O)COc1ccccc1/C=N/n1c(C2CCCCC2)n[nH]c1=S do in these assays?
TRPV1 potentiator: -4.0; gsp ag: -2.8%; gsp antagonist: 0.7%; Sfp inh: 50.1µM*; ClpP mod: -9.8%; Menin-MLL FL inh: 4.3

How did CCOC(=O)/C(C#N)=C/c1ccc(N2CCN(C)CC2)cc1 do in these assays?
TRPV1 potentiator: -5.6; gsp ag: 16.0%[15.4 µM]; gsp antagonist: -14.9%; Sfp inh: -2.9%; ClpP mod: 18.0%; TRPML1 blocker: 14.6; Menin-MLL FL inh: 18.6

Results for Cc1cccc(CNc2ccc(S(=O)(=O)N3CCCCC3)cc2)c1 ?
TRPV1 potentiator: 4.3; gsp ag: 11.5%; gsp antagonist: 6.1%; ClpP mod: 0.0%; TRPML1 blocker: -16.9

How did O=C(COc1ccccc1)Nc1ccc(F)cc1 do in these assays?
gsp ag: -4.2%; gsp antagonist: -0.4%; TRPML1 blocker: -4.2

Results for CC(C)(CO)NC(=O)CC1C(=O)NCCN1CC(c1ccccc1)c1ccccc1 (stereo not given) ?
TRPV1 potentiator: 15.0; gsp ag: -44.8%[inhibitor]; gsp antagonist: -1.4%; Sfp inh: 15.6%; ClpP mod: -4.1%; TRPML1 blocker: 50.0; Menin-MLL FL inh: -2.1

How did O=C1C2=C(C(=O)c3ccccc31)C1O[C@](c3ccsc3)(Cc3ccccc31)O2 do in these assays?
TRPV1 potentiator: inactive; Sfp inh: -3.3%; Menin-MLL FL inh: -5.9[11.7 µM]

Results for Cc1ccc(/C=N/NC(=O)Cn2ccc(C(F)(F)F)n2)o1 ?
TRPV1 potentiator: 3.8; gsp ag: -9.5%[15.4 µM]; gsp antagonist: 3.1%; Sfp inh: -29.8%; TRPML1 blocker: 20.3; Menin-MLL FL inh: -0.5

How did CC1(C)Cc2c(C#N)c(SCCO)nc(N3CCOCC3)c2CO1 do in these assays?
TRPV1 potentiator: 23.2; gsp ag: 0.0%[15.4 µM]; gsp antagonist: 3.6%; Sfp inh: 11.5%; ClpP mod: -1.8%; TRPML1 blocker: -24.8; Menin-MLL FL inh: 6.4

What do the screens show for `Cc1cc(O)cc2c1C(c1ccc(F)cc1)CC1(CC(C)(C)NC(=S)N1)O2` (stereo not given)?
TRPV1 potentiator: -4.7; gsp ag: -4.5%[15.4 µM]; gsp antagonist: 2.9%; Sfp inh: -0.9%; TRPML1 blocker: 1.0; Menin-MLL FL inh: -1.4

Results for Cn1c(=O)[nH]c(=O)c2c1nc(NCCCO)n2CCCc1ccccc1 ?
TRPV1 potentiator: 14.3; gsp ag: -17.1%; gsp antagonist: 0.3%; Sfp inh: 4.6%; ClpP mod: 0.8%; TRPML1 blocker: -3.0; Menin-MLL FL inh: 0.5

What do the screens show for `CN1CCN(CC(=O)Nc2ccccc2C(F)(F)F)CC1`?
TRPV1 potentiator: -4.6; gsp ag: -15.7%; gsp antagonist: 14.2%; Sfp inh: -16.0%; ClpP mod: 2.4%; TRPML1 blocker: 14.1; Menin-MLL FL inh: 1.0

Results for CN1C(=O)/C(=C/c2ccc(C(=O)NC3CCCC3)cc2)Oc2ccccc21 ?
TRPV1 potentiator: 15.2; gsp ag: inconclusive; gsp antagonist: 0.3%; Sfp inh: 22.4%; ClpP mod: 16.8%; TRPML1 blocker: 47.2; Menin-MLL FL inh: -1.9

What do the screens show for `COC(=O)c1cc(OC)c(OC)cc1NC(=O)CCN1C(=O)C2CCCCC2C1=O` (stereo not given)?
gsp ag: inconclusive; ClpP mod: 3.9%; TRPML1 blocker: 9.2

Results for Cc1nn(CC(=O)Nc2ccc(C#N)cc2)c(C)c1[N+](=O)[O-] ?
TRPV1 potentiator: -1.2; gsp ag: 12.2%; gsp antagonist: 1.0%; Sfp inh: 10.5%; ClpP mod: 0.9%; TRPML1 blocker: -9.1; Menin-MLL FL inh: -4.0

How did O=C(Nc1ccnn1C1CCN(CCCc2ccccc2)CC1)c1ccccc1Cl do in these assays?
TRPV1 potentiator: 4.2; gsp ag: 5.1%; gsp antagonist: 9.3%; Sfp inh: 0.0%; ClpP mod: -1.8%; TRPML1 blocker: 23.5

How did Clc1cccc(CN2CCSCC2)c1 do in these assays?
TRPV1 potentiator: inconclusive; gsp ag: -21.7%; gsp antagonist: -0.5%; Sfp inh: -22.7%; ClpP mod: 1.9%; TRPML1 blocker: 12.5; Menin-MLL FL inh: 2.6

Results for Nc1ccc2nc3c(=O)n(C4CCCCC4)c(=O)[nH]c3nc2c1 ?
TRPV1 potentiator: -9.9; gsp ag: 35.7%; gsp antagonist: -1.8%; Sfp inh: -16.3%; ClpP mod: 0.4%; TRPML1 blocker: -10.1; Menin-MLL FL inh: inconclusive

What do the screens show for `Brc1ccc2nc(-c3c[nH]c4ccccc34)cn2c1`?
TRPV1 potentiator: inconclusive; gsp ag: 17.0%; gsp antagonist: -9.5%; Sfp inh: -9.5%; ClpP mod: -10.2%; TRPML1 blocker: 6.3; Menin-MLL FL inh: 16.2

Results for O=C(Nc1ccc2c(c1)OCCO2)C1c2ccccc2C(=O)N2CCc3ccccc3C12 (stereo not given) ?
TRPV1 potentiator: -9.9; gsp ag: -25.5%; gsp antagonist: -2.4%; Sfp inh: 10.6%; ClpP mod: 3.6%; TRPML1 blocker: 23.3; Menin-MLL FL inh: -1.2
